# Source: PubChem BioAssay (several laboratories)
# Mtb betalactam – beta-lactam sensitization of Mtb H37Rv, H37Rv; actives 0.27% (n = 330,000); M. tuberculosis H37Rv growth with meropenem, percent inhibition; hits of this screen are not shown here; inhibition, % at 25 µM; AID 434955, 2010;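 active means about 74% or more and at least 40 points above the plate without the antibiotic, then above 30% in a dose series; inconclusive means first-round hits that could not be retested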;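 further: growth measured after seven days incubation then overnight dye step; 0% = bacteria only wells and 100% = bacteria with antibiotic; twin plates without the antibiotic show which effects depend on it; some results filed as inactive read as strong as hits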
# Arbovirus anti – antivirals against arbovirus infection, primary screen, cell-based, full library, 10K replicate subset; actives 0.37% (n = 200,000); arbovirus infection cell-based antiviral screen; inhibition, % at 10 µM; AID 1251, 2008;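 active means inhibition from about 30%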;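 further: bluetongue infection of BSR cells; cell survival read as ATP light after 72 h; 0% = infected wells without compound and 100% = uninfected wells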
# Mtb growth – M. tuberculosis H37Rv growth inhibitors, H37Rv strain (AID 1626). M. tuberculosis H37Rv growth inhibition; higher % means a stronger effect. actives 0.95% (n = 220,000). inhibition, % at 10 µM; hits with a dose series show IC50 in µM;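 active means confirmed in a dose series; inconclusive means inhibition above 80% but not taken into the dose series; inactive means below 80% or under 30% at every dose of the series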;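 further: bacteria incubated seven days before Alamar blue readout; 0% = bacteria only wells and 100% = bacteria with antibiotic wells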
# YopH inh – YopH tyrosine phosphatase inhibitors, primary screen, biochemical, fluorescence Ex485/Em525; YopH tyrosine phosphatase [Yersinia enterocolitica]; inhibition, %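 (about 10 µM by stock and volumes)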; actives 0.16% (n = 140,000); AID 898, 2007;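 active means inhibition of 50% or more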;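 further: controls were vehicle for no effect and minimum signal wells for full effect; inactives centre near -20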
# RecA intein inh – Mtb RecA intein splicing inhibitors, primary screen, biochemical, fluorescence, HTS. Protein RecA (Mycobacterium tuberculosis (strain ATCC 25618 / H37Rv)), P9WHJ3. cell-free RecA intein splicing. inhibition, %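 (about 9 µM by stock and volumes)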. actives 0.75% (n = 290,000). AID 2221, 2009; in the data active means inhibition above about 30%; inconclusive means no clear call, values can overlap the other calls;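 further: 0% = vehicle wells and 100% = reference inhibitor control wells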
# Target sequence (P9WHJ3 whole entry, looked up): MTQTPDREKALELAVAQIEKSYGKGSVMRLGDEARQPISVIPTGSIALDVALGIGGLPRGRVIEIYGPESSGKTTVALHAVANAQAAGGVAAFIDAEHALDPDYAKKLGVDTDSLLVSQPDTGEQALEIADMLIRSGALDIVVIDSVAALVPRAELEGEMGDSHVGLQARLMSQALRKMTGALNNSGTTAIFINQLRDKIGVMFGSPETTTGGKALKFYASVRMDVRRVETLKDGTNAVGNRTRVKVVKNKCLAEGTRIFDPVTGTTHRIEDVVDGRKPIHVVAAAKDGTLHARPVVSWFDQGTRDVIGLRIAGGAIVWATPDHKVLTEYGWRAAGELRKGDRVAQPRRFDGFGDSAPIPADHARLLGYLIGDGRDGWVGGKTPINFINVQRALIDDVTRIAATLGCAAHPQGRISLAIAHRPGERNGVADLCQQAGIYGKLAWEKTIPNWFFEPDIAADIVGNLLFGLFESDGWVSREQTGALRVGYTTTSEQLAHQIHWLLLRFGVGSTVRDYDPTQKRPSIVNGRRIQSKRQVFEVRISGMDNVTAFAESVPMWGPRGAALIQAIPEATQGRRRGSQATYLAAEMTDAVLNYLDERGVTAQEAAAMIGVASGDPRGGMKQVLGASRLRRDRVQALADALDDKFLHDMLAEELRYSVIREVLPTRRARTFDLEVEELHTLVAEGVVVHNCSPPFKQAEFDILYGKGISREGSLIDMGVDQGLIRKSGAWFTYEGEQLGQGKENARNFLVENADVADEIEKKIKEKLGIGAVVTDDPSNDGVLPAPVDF
# Arbovirus anti repeat – further read-out of Arbovirus anti, marked with its call; inhibition, %; measured here: 10K subset replicate screen; many hits read low in the repeat;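 first of two repeat runs on a subset; 0% = infected and 100% = uninfected wells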
# Active calls of the source: *; ? = inconclusive; / = not tested or not shown. An excerpt; the hit share may differ from the screen's.
SMILES,Mtb betalactam,Arbovirus anti,Mtb growth,YopH inh,RecA intein inh,others
CCn1nnc(NC(=O)c2ccc(C(C)(C)C)cc2)n1,-10,-4,1%,-22,-0.4,Arbovirus anti repeat=-1
Cc1c(C(=O)N2CCOCC2)c(S(=O)(=O)Nc2cccc(F)c2)c(C)n1C,-1,/,/,/,1.4,
CC1CCN(C(=O)C(=O)Nc2sc3c(c2C(N)=O)CC(C)(C)OC3)CC1,-1,/,/,/,1.4,
Nc1nc(SCCO)[nH]c(=O)c1NC(=O)c1ccccc1F,4,3,-5%,/,-1.5,
O=C(O)CCC(=O)Nc1ccc(Cc2ccc(NC(=O)CCC(=O)O)cc2)cc1,-3,-4,-10%,-21,-3.2,
CCn1c(=O)c(-c2cc(=O)[nH][nH]2)c(O)c2ccccc21,-2,1,1%,/,-0.4,
CC(C)c1ccc(NC(=O)CSc2nnc(OC(=O)N(C)C)n2C2CC2)cc1,1,/,/,/,-0.2,
O=C(O)C1C2C=CC(O2)C1C(=O)NCCCn1ccnc1 (stereo not given),-5,13,-2%,12,1.5,
C/C(=N\OC(=O)c1cccc(C(F)(F)F)c1)c1sc(-c2ccccc2)nc1C,0,0,/,8,-0.1,
COCCn1c(SCC(=O)c2ccc3c(c2)OCCO3)nnc1-c1ccco1,?,1,-4%,-32,-0.1,
Cc1ccc(S(=O)(=O)NCC(=O)OCC(=O)NC(=O)NC2CCCC2)cc1,-8,2,2%,/,-5.3,
CC(C)(C)c1n[nH]c(=S)n(/N=C/c2cccs2)c1=O,7,9,14%,-2,2.4,
CCOc1ccc(C(=O)NC(=S)N(Cc2ccccc2)Cc2ccccc2)cc1,59,0,?,-10,11,
Cc1ccc(N(Cc2cc3ccccc3[nH]c2=O)C(=O)c2ccco2)c(C)c1,-17,-6,-12%,-35,-0.2,
CC1Cc2cc(/C(O)=C3\C(=O)C(=O)N(Cc4ccncc4)C3c3ccccc3F)ccc2O1 (stereo not given),0,/,/,/,0.2,
COc1ccc(C(=O)N/C(=C\c2cn(C)c3ccccc23)C(=O)NCCCN2CCOCC2)cc1OC,-2,/,/,/,-1.0,
CC(=O)c1ccc(NC(=O)CC23CC4CC(C2)CC(n2nnc(C)n2)(C4)C3)cc1,-3,-1,6%,/,-3.9,
Cc1ccc(N(CC(=O)Nc2cc(C)ccc2C)S(C)(=O)=O)cc1,0,/,/,/,-4.4,
COc1cccc(CC(=O)N2CCC(n3nccc3NC(=O)C3CCOC3)CC2)c1 (stereo not given),1,/,/,/,0.2,
COc1cc(C(=O)NC(C(=O)Nc2cccc(C(C)=O)c2)C(C)C)cc(OC)c1OC (stereo not given),-4,1,-5%,/,3.9,
N#Cc1ccccc1S(=O)(=O)N1CCN(C(=O)c2ccc(-n3cncn3)c([N+](=O)[O-])c2)CC1,1,/,/,/,-1.0,
COc1ccccc1CNS(=O)(=O)c1ccc(-n2cnnn2)c(OC)c1,4,/,/,/,-0.4,
COC(=O)c1cc(NC(=O)CSc2nnc(N)s2)ccc1Cl,1,3,-8%,/,-0.9,
CCn1c(SCC(=O)Nc2cc(C)on2)nc2c(c1=O)SCC2,5,/,/,/,0.3,
Cc1nc(N(C)C)ncc1C(=O)O,-1,12,-5%,-24,-3.0,
CN1CCN(S(=O)(=O)c2ccc(Sc3nnnn3-c3ccccc3)c([N+](=O)[O-])c2)CC1,49,-34,12%,-18,15,
Cc1nc2scc(-c3ccc(C(C)(C)C)cc3)c2c(=O)n1N,14,3,6%,/,-5.2,
O=c1[nH]c(-c2ccncc2)nc2ccccc12,0,4,-6%,-28,-2.8,
Cc1cccn2cc(-c3ccc(S(=O)(=O)N4CCCCC4)cc3)nc12,0,4,0%,/,-1.4,
COc1ccc(CC(=O)NCc2ccccc2)cc1,4,/,/,/,1.1,
CCC(C)NC(=O)Cn1cnc2sc(C)c(S(=O)(=O)N3CCCCC3)c2c1=O (stereo not given),2,/,/,/,1.0,
CCN(CC)CC#CC(C)OCOCC#CCOC (stereo not given),-14,-1,-2%,-45,-1.6,
Cc1cc(N2CCN(c3nc(-c4ccccc4)cs3)CC2)c2ccccc2n1,93,-26,2%,/,20,
FC(F)Sc1ccc(NC(=S)NC2CCCC2)cc1,-6,-3,8%,/,0.0,
CC(C)CN1CCN(Cc2ccc(F)cc2Cl)CC1CCO (stereo not given),-10,/,-7%,/,-0.4,
CC(=O)NCc1nc2ccccc2n1C(C)C,2,9,-6%,-5,-2.4,Arbovirus anti repeat=5
CCCC(C(=O)OCC)P(=O)(c1ccccc1)c1ccccc1 (stereo not given),0,2,-6%,7,-1.8,
CCn1cc([N+](=O)[O-])c(C(=O)N2CCCC2)n1,/,-1,-6%,-5,-1.9,
Cn1cnc(S(=O)(=O)Nc2cc(C(F)(F)F)ccc2N2CCOCC2)c1,-2,/,2%,/,0.7,
CCn1nc(C)c(CNC(=O)c2cc(COc3ccc(F)cc3Cl)on2)c1C,0,/,11%,/,2.0,
COc1ccc(Nc2nc(N)nc(CN(C)C3CCCCC3)n2)cc1,-3,-3,-1%,14,6.0,
COC(=O)c1c(C)[nH]c(C(=O)/C=C/c2ccccc2F)c1C,-1,/,4%,/,-0.4,
CN1CCN(NS(=O)(=O)c2cccs2)CC1,5,2,-5%,-23,-1.7,
COc1ccccc1NCCC(=O)OCC(=O)Nc1ccc(Cl)cn1,-10,15,/,-26,-0.3,
CN(Cc1cnn(C)c1)Cc1nc(Cc2ccccc2Cl)no1,-4,11,-5%,/,0.8,
CNC(=O)N(O)C1N(NC(=O)Nc2cccc3ccccc23)C(=S)SC1(C)C (stereo not given),11,-9,-1%,-20,-6.5,
C/C(CC(=O)Nc1ccccc1)=N\NC(=O)COc1ccc(C)cc1Br,1,3,-3%,/,2.6,
O=[N+]([O-])c1ccc(-c2cnc3ccccc3n2)cc1,-4,/,/,/,3.3,
CCOc1ccc(C2C(C#N)=C(N)Oc3cc(C)oc(=O)c32)cc1 (stereo not given),3,19,-7%,/,-1.4,
N#Cc1ccc(Oc2ccc(S(=O)(=O)N3CCOCC3)cn2)cc1,1,/,/,/,0.4,

# Of the compounds above, these have a thiophene ring, fused or not.
SMILES,Mtb betalactam,Arbovirus anti,Mtb growth,YopH inh,RecA intein inh,others
CC1CCN(C(=O)C(=O)Nc2sc3c(c2C(N)=O)CC(C)(C)OC3)CC1,-1,/,/,/,1.4,
CC(C)(C)c1n[nH]c(=S)n(/N=C/c2cccs2)c1=O,7,9,14%,-2,2.4,
Cc1nc2scc(-c3ccc(C(C)(C)C)cc3)c2c(=O)n1N,14,3,6%,/,-5.2,
CCC(C)NC(=O)Cn1cnc2sc(C)c(S(=O)(=O)N3CCCCC3)c2c1=O (stereo not given),2,/,/,/,1.0,
CN1CCN(NS(=O)(=O)c2cccs2)CC1,5,2,-5%,-23,-1.7,

# (list continues)
SMILES,Mtb betalactam,Arbovirus anti,Mtb growth,YopH inh,RecA intein inh,others
CCc1ccc(NC(=O)Nc2cc(C(=O)O)ccc2N2CC3CC(C2)c2cccc(=O)n2C3)cc1 (stereo not given),6,/,/,/,2.3,
c1ccc(OCc2nnc3sc(-c4cccs4)nn23)cc1,2,2,0%,-8,-1.5,
Cc1ccc(C2=NNC(C(O)C(O)C(O)C(O)CO)S2)cc1 (stereo not given),-4,7,5%,2,1.5,
CCOc1cc(Br)c(/C=C2/C(=O)N(C)C(=S)N2CC(=O)OC)cc1OC,8,-19,34%,/,-7.4,
CCO[C@@H]1OC(C(=O)N2CCN(Cc3ccc4c(c3)OCO4)CC2)=C[C@H](c2ccc3c(c2)OCO3)[C@H]1CCCO,-1,-6,21%,/,1.7,
S=c1nc(C2CCCCC2)[nH]c2ccccc12,0,-1,11%,/,0.4,
COc1ccc(C(OC(=O)c2c(C)noc2C)C(=O)NC2CCCC2)cc1 (stereo not given),-3,-8,-8%,-35,0.0,
Cc1cc(C)nc(NC(=O)CSc2nnnn2-c2ccccc2)n1,1,6,-7%,-15,1.1,
COC(=O)CSc1nc2ccc(C)cc2[nH]1,-5,-1,0%,-19,-3.1,
COc1ccccc1-n1c(SCC(=O)Nc2cccc3ccccc23)nc(O)cc1=O,0,6,-3%,-15,6.1,
Cc1ccc(S(=O)(=O)Nc2ccc3c(c2)nc(CCN2CCCCC2)n3C)cc1,-8,/,-9%,/,0.5,
CCOP(=O)(OCC)c1cc(C)c(O)c(C(C)(C)C)c1,0,/,-2%,/,-0.6,
Cc1ccc(C(=O)CCC(=O)N(C)CC(=O)Nc2c(Cl)cccc2Cl)cc1,-8,/,/,/,-3.2,
CCn1c(SC(C)C(=O)Nc2nccs2)nnc1-c1ccncc1 (stereo not given),-6,/,/,/,-0.9,
Cc1cccc(Cl)c1NNC(=O)Nc1c([N+](=O)[O-])c(C)nn1C,-9,/,3%,/,-1.4,
O=C(c1ccccc1)c1nnc(-c2ccccc2F)o1,3,5,-8%,-28,-2.4,
Cc1noc(C)c1S(=O)(=O)Nc1ccc(C(=O)N2CCc3ccccc3C2)cc1,-10,7,-6%,-47,3.0,
CC(O)[C@H]1CNCCN1CC1(c2ccccc2)CC1 (stereo not given in full),-7,/,/,/,-1.0,
Cc1ccc(C(=O)NC(=S)N2CCN(c3cc(C)ccc3C)CC2)cc1,91,/,/,/,-1.0,
CC(Cc1ccccc1)NC(N)=O (stereo not given),-10,/,-1%,/,0.6,

# The last two entries of the part above are carried over, then new ones follow.
SMILES,Mtb betalactam,Arbovirus anti,Mtb growth,YopH inh,RecA intein inh,others
Cc1ccc(C(=O)NC(=S)N2CCN(c3cc(C)ccc3C)CC2)cc1,91,/,/,/,-1.0,
CC(Cc1ccccc1)NC(N)=O (stereo not given),-10,/,-1%,/,0.6,
Cc1nc2cc(CC(=O)O)ccc2o1,-4,13,-4%,-36,-5.0,
CCC(=NCc1ccc2c(c1)OCO2)c1c(O)n(C)c(=O)n(C)c1=O,-14,-29,0%,-31,-1.6,
CC1CCc2c(C(=O)NCCCN3CCOCC3)csc2C1 (stereo not given),0,-3,15%,-46,-2.1,
CC(C)Cn1cnc2c1c(=O)n(CC(=O)O)c(=O)n2Cc1ccccc1,-9,/,/,/,-0.1,
Oc1ccc(-c2csc(-c3cccnc3)n2)c(O)c1,-2,-17,31%,/,-1.9,
Cc1c(C(=O)Nc2ccc(OCc3ccccc3)cc2)cccc1[N+](=O)[O-],-9,2,-9%,-27,-0.9,
Cc1cccc2cc(C3CC(c4cccs4)=NN3C(=O)CCC(=O)O)c(Cl)nc12 (stereo not given),-3,8,1%,19,0.4,
NC(=O)C1=C[C@H](c2csc3ccccc23)C[C@H](OCc2ccc(CO)cc2)O1,3,15,-6%,/,4.1,
CC(=O)C(=Nc1ccccc1Cl)NNc1ccc(Cl)cc1,94,-32,50%,-21,17,
CC(=O)c1cccc(NC(=O)N2CCCC2C(=O)NC2CCCC2)c1 (stereo not given),-3,/,/,/,0.0,
O=C(CN1CCCC1)NCC12CC3CC(CC(C3)C1)C2,-3,-4,-7%,-32,3.7,
COc1ccc(Cl)cc1N(C(C)C(=O)O)S(C)(=O)=O (stereo not given),-3,0,3%,/,0.6,
CC(=O)Nc1ccc(-c2cn3ccsc3n2)cc1,-8,3,3%,-162,-1.1,
CC(=O)Nc1cccc(C(=O)OC(C(=O)c2ccc(C)c(C)c2)c2ccccc2)c1 (stereo not given),93,-1,-5%,-22,6.0,
O=C(Cn1cnc2c(nnn2Cc2ccccc2F)c1=O)NCc1ccco1,-10,-3,/,-22,-0.6,
CC(=O)N1[C@H](C)C=C[C@]1(Cc1ccccc1)C(=O)O,-3,-1,-1%,-27,-3.1,
Cc1c(NC(=S)N/N=C\c2ccccc2O)c(=O)n(-c2ccccc2)n1C,-2,-8,-5%,-36,-11,
COc1ccc(-n2c(-c3cccc(C)c3[N+](=O)[O-])n[nH]c2=S)cc1,-11,2,-15%,-48,2.7,
CCCCNc1ncnc2c1cnn2Cc1ccc(Cl)cc1,4,/,/,/,-2.7,
Cc1c(NC(=O)c2cc3ccccc3c(=O)s2)c(=O)n(-c2ccccc2)n1C,-3,4,0%,-42,0.1,
Cc1noc(C)c1Cn1nc(C(=O)O)c2ccccc2c1=O,-4,-1,-3%,2,1.7,
O=C(Cn1ccc(C(F)(F)F)n1)NNC(=O)c1cccnc1,-5,/,/,/,-2.9,
Cc1ccc(C(=O)N/N=C/c2ccc(-c3cccc(C(F)(F)F)c3)o2)cn1,59,/,-1%,/,-3.1,
Brc1cc(-c2ccccc2)nc(-c2ccccc2)n1,3,/,/,/,4.0,
Cc1sc2ncn(CC(=O)NCC(=O)N3CCN(c4ccc(F)cc4)CC3)c(=O)c2c1C,4,/,/,/,-1.1,
CSc1nsc(SCC(=O)N2CCc3ccccc32)n1,100,4,?,-12,-3.0,
